Screens: PubChem, National Center for Advancing Translational Sciences (NCATS)
Six1-Eya2 inh – blocks human Six1 binding to Eya2 | Q15475+O00167 | AlphaScreen GST-Six1/His-Eya2 binding, biochemical; hits give low values; control for the full effect not named in the record | activity change, % (test concentration not listed) | 0.56% of 360,000 active | AID 651725; in the data active = activity change below about -65%; inconclusive = about -30% to -65%; inactive = above about -30%; further: on the % scale 0 is the no-effect control and ±100 the full control effect; compound concentration not given in the record
Target sequence (O00167 whole entry, looked up): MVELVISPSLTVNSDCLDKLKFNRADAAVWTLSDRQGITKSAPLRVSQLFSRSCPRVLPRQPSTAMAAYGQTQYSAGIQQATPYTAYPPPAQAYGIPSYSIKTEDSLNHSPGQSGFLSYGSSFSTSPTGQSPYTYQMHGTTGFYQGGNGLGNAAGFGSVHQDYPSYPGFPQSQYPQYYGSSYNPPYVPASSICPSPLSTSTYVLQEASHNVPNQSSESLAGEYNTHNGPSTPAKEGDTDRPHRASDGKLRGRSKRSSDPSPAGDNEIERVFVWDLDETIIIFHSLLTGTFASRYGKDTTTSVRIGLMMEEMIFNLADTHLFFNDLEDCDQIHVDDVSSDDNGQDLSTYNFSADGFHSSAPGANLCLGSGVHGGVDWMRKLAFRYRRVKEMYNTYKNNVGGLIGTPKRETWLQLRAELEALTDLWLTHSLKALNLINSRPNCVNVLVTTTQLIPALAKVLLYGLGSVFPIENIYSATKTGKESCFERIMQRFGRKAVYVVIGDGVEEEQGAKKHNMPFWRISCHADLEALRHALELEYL
Target sequence (Q15475 whole entry, looked up): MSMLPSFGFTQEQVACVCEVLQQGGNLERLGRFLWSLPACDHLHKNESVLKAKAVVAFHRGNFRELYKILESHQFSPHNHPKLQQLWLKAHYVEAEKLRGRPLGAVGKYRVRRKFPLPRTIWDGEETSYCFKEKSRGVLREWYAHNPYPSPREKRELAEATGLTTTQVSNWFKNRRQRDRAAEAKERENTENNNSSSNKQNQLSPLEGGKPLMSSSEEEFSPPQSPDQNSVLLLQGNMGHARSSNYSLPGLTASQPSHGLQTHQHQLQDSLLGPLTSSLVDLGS
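GST-Six1 + His-Eya2 (5X stock: 250/500 nM); Tris pH 8.0, 300 mM NaCl, 0.05% BSA, 0.02% Tween 20; GSH donor/Ni acceptor beads; 1 h 37 °C dark; AlphaScreen readout.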
D2 agonist – human D2 receptor agonism in beta-arrestin assay; DiscoveRx PathHunter D2 beta-arrestin, luminescence, 90 min; 100% = 57 uM dopamine signal; activation, % (test concentration not listed); 0.084% of 360,000 active; in the data active = activation above about 40%; inconclusive = about 15% to 40%; inactive = below about 15%; further: compound concentration not given in the record; the text of the record calls up to 30% inactive
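Agonist mode: compounds alone added to overnight-plated D2 PathHunter cells for 90 min at 37 C, with 57 uM final dopamine (EC100) defining full response. Beta-arrestin recruitment detected by chemiluminescent reagent, read after 1 h at ambient temperature.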
TRPML1 inh – human mucolipin-1 channel inhibition. Q9GZU1. TRPML1-inducible cells, Ca2+ dye fluorescence, FDSS; hits give low values; inhibition of EC80 agonist-evoked calcium signal. activity change, negative = inhibition, % (concentration not given with the values). 0.02% of 390,000 active. AID 624415; in the data active means activity change below about -50%; inconclusive means about -30% to -50%; inactive means above about -30%;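 further: stimulus is agonist 54-4 at its EC80 concentration; on the % scale 0 is the no-effect control and ±100 the full control effect; compound concentration not given in the record; the text of the record puts the active cut at -80%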
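Calcium fluorescence in TRPML1-DL cells induced overnight with Tet: a 110 s read after compound pin addition, then a 110 s antagonist read after challenge with 54-4 at 4 uM final (EC80).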
PINK1 expr mod – PINK1 expression modulation; PINK1 immunofluorescence, high-content cytometry, 24 h; Potency, µM (titrated, usually from 76.6 µM), without a hit: at the top dose activation (PINK1 increase), most hits filed as activators; 0.2% of 410,000 active; active = well fitted activation curve with a large enough effect; inconclusive = small, poorly fitted or top-dose-only effect; inactive = flat fitted curve, though single readings scatter; cell line not stated here;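 further: potency means the concentration at half of the fitted maximal effect; % of control where 0% means no effect; nearly all actives have a fitted effect of over 65% in size; a mitochondrial uncoupler was the plate control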
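Cells are seeded, rested 12 hours, then given compound at five concentrations or DMSO for 24 hours. After fixation, blocking and antibody staining, PINK1 amount and mitochondrial localization are scored; CCCP serves as control.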
D2 PAM – human D2 receptor positive allosteric modulation. DiscoveRx D2 beta-arrestin cells, luminescence, 90 min; 100% = 57 uM dopamine signal. 0.23% of 360,000 active. potentiation, % (test concentration not listed). AID 624464. P14416; active = potentiation of 50% or more; inconclusive = 30% to 50%; inactive = 30% or less;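 further: compound concentration not given in the record; tested on top of an EC20 dose of dopamine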
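PathHunter beta-arrestin assay in DiscoveRx D2 cells. Compounds were added with an EC20 of dopamine (50 nM final) for 90 min at 37 deg C. Luminescence was read 1 h after detection reagent, with 57 uM dopamine as the EC100 control.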
TRPML1 agonist – activates the human TRPML1 channel | Q9GZU1 | TRPML1-expressing cells, Ca2+ dye fluorescence, FDSS; host cell line not named in the record; reference of the full effect not given here | activation, % (concentration not given with the values) | 0.12% of 410,000 active; in the data active = activation above about 50%; inconclusive = about 30% to 50%; inactive = below about 30%; further: 0% is about no effect; the text of the record puts the active cut at 80%
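Tet-induced TRPML1-DL cells, 1,500 per well, cultured overnight, were loaded with a no-wash Ca2+ dye for 45–90 min. Calcium fluorescence was recorded on the FDSS for 110 s after compound addition, before the EC80 agonist (4 uM 54-4) was added.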
* marks the source's active call; other numbers are inactive results; [ ] = remark or other dose.

Screening COc1ccc(CN2CCN(Cc3ccco3)CC2)cc1OC returned Six1-Eya2 inh -1, D2 agonist -1.4, PINK1 expr mod 1.2% and D2 PAM -41.
`CCN(CC(=O)Nc1cc(Cl)ccc1-n1cncn1)Cc1nc2ccccc2c(=O)[nH]1` gave Six1-Eya2 inh 4, D2 agonist 0.0, TRPML1 inh 0, PINK1 expr mod -1.8%, D2 PAM -1 and TRPML1 agonist 0.1.
`COc1ccc(NC(=O)Cn2c(=O)oc3cc(S(=O)(=O)NC(C)C)ccc32)cc1OC` gave TRPML1 inh 21, PINK1 expr mod 1.5% and TRPML1 agonist 0.2.
COc1cc(OC)cc(C(=O)N2CCN(C(=O)COc3ccc4ccccc4c3)CC2)c1 was read as Six1-Eya2 inh -8, D2 agonist -0.1, TRPML1 inh 7, PINK1 expr mod 2.0%[38.3 µM], D2 PAM -6 and TRPML1 agonist -0.6.
For CC(C)(C)c1ccc(C(=O)N2CCC2(C)C(=O)Nc2cccc3ncccc23)cc1 (configuration not stated) the results were Six1-Eya2 inh -9, D2 agonist -3.2, PINK1 expr mod 2.1%, D2 PAM -12 and TRPML1 agonist -0.7.
N#C/C(=C\c1c(F)cccc1Cl)C(=O)NC1CC1 was read as Six1-Eya2 inh 6, D2 agonist 2.3, TRPML1 inh -9, PINK1 expr mod 3.2%, D2 PAM 2 and TRPML1 agonist 0.3.
Screening Cc1ccc(NC(=O)CSc2nc3ccccc3n2CC(=O)N2CCC(C)CC2)cc1C returned TRPML1 inh -1, PINK1 expr mod 1.0% and TRPML1 agonist 4.9.
`C=CCNC(=O)C1CC2Cn3c(nc4cc(C)c(C)cc43)C2N1C` (configuration not stated) gave Six1-Eya2 inh 2, D2 agonist 1.3, TRPML1 inh 2, PINK1 expr mod 0.3%, D2 PAM -18 and TRPML1 agonist -1.0.
`CN(CCCC1CCCC1)C(=O)CC1C(=O)NCCN1Cc1cccc(F)c1F` (configuration not stated) gave Six1-Eya2 inh -4, D2 agonist 0.3, TRPML1 inh 11, PINK1 expr mod 1.8%, D2 PAM -9 and TRPML1 agonist 0.2.
`Cc1sc2ccccc2c1CNC[C@H]1O[C@@H](n2cnc(C(N)=O)n2)[C@H](O)[C@@H]1O` gave Six1-Eya2 inh -2, D2 agonist -0.4, TRPML1 inh -15, PINK1 expr mod -0.2%, D2 PAM -2 and TRPML1 agonist -0.2.
O=[N+]([O-])c1ccc(N=Cc2c(O)ccc3ccccc23)cc1 was read as Six1-Eya2 inh -1, D2 agonist -0.3, PINK1 expr mod -0.1% and D2 PAM -4.
`COc1cccc(C2NC(=O)NC(C)=C2C(=O)Nc2cccc(C)c2C)c1` (configuration not stated) gave Six1-Eya2 inh 3, D2 agonist 3.1, TRPML1 inh -9, PINK1 expr mod 0.8%, D2 PAM -4 and TRPML1 agonist -0.2.

Among those listed so far, these contain four or more nitrogen atoms:
`CCN(CC(=O)Nc1cc(Cl)ccc1-n1cncn1)Cc1nc2ccccc2c(=O)[nH]1` gave Six1-Eya2 inh 4, D2 agonist 0.0, TRPML1 inh 0, PINK1 expr mod -1.8%, D2 PAM -1 and TRPML1 agonist 0.1.
Screening Cc1ccc(NC(=O)CSc2nc3ccccc3n2CC(=O)N2CCC(C)CC2)cc1C returned TRPML1 inh -1, PINK1 expr mod 1.0% and TRPML1 agonist 4.9.
`C=CCNC(=O)C1CC2Cn3c(nc4cc(C)c(C)cc43)C2N1C` (configuration not stated) gave Six1-Eya2 inh 2, D2 agonist 1.3, TRPML1 inh 2, PINK1 expr mod 0.3%, D2 PAM -18 and TRPML1 agonist -1.0.
`Cc1sc2ccccc2c1CNC[C@H]1O[C@@H](n2cnc(C(N)=O)n2)[C@H](O)[C@@H]1O` gave Six1-Eya2 inh -2, D2 agonist -0.4, TRPML1 inh -15, PINK1 expr mod -0.2%, D2 PAM -2 and TRPML1 agonist -0.2.

Other compounds.
`C[C@@H]1CN([C@H](C)CO)C(=O)Cc2cc(NS(=O)(=O)c3ccc(Cl)cc3)ccc2O[C@H]1CN(C)Cc1ccc(C(F)(F)F)cc1` gave Six1-Eya2 inh -2, D2 agonist 0.2, TRPML1 inh -8, PINK1 expr mod 0.2%, D2 PAM -4 and TRPML1 agonist 1.6.
Cc1nn(-c2nc(-c3ccccc3)cc(C(F)(F)F)n2)c(C)c1Cl was read as TRPML1 inh 45, PINK1 expr mod 0.5% and TRPML1 agonist 1.1.
Screening N#C/C(=C/c1ccccc1)c1nn(CCO)c(N)c1C#N returned Six1-Eya2 inh -1, D2 agonist -0.9, TRPML1 inh 2, PINK1 expr mod -0.4%, D2 PAM 2 and TRPML1 agonist 0.1.
For Cc1oc2c(C)c3oc(=O)c(CCC(=O)NCCCN4CCOCC4)c(C)c3cc2c1C the results were Six1-Eya2 inh -8, D2 agonist -6.0, PINK1 expr mod -0.7% and D2 PAM -40.
`Cc1nsc2nc3c(F)c(F)c(F)c(F)c3cc12` gave Six1-Eya2 inh 0, D2 agonist -3.8, TRPML1 inh 23, PINK1 expr mod -1.5%, D2 PAM 3 and TRPML1 agonist 0.6.
`Cc1ccc(Cl)cc1NS(=O)(=O)c1cn(C)nc1C` gave Six1-Eya2 inh 5, D2 agonist 3.1, TRPML1 inh 9, PINK1 expr mod -0.3%, D2 PAM 11 and TRPML1 agonist -0.7.
COC(=O)c1ccc(Oc2nc(SC)nc(N(C)C)n2)cc1 was read as Six1-Eya2 inh 16, D2 agonist 0.6, TRPML1 inh -1, PINK1 expr mod 7.4%, D2 PAM -2 and TRPML1 agonist -0.3.
`CCOc1ccc(NC(=O)N2CCN(c3nc4ccccc4s3)CC2)cc1` gave Six1-Eya2 inh 2, D2 agonist 2.4, TRPML1 inh 7, PINK1 expr mod 0.5%, D2 PAM -1 and TRPML1 agonist -1.5.
Screening C#CCN(C[C@@H]1[C@@H](OC(=O)NCc2ccco2)[C@@H](OC(=O)NCc2ccco2)CN(C(=O)OC(C)C)N1C(=O)OC(C)C)S(=O)(=O)c1ccc(C)cc1 returned Six1-Eya2 inh 13, D2 agonist -2.2, TRPML1 inh -3, PINK1 expr mod 0.5%, D2 PAM 2 and TRPML1 agonist 0.5.
COc1ccc(C(=O)O)cc1S(=O)(=O)N1CCSCC1 was read as Six1-Eya2 inh 0, D2 agonist 2.7, TRPML1 inh -3, PINK1 expr mod 0.3%, D2 PAM -2 and TRPML1 agonist 0.0.
Screening c1ccc(-c2nc(NCCCn3ccnc3)c3oc4ccccc4c3n2)cc1 returned Six1-Eya2 inh inconclusive, D2 agonist 0.9, TRPML1 inh -17, PINK1 expr mod -9.2%[38.3 µM], D2 PAM -5 and TRPML1 agonist -0.1.
Screening CN(C)c1ccc(/C=C/C(=O)c2ccc3c(c2)OCCO3)cc1[N+](=O)[O-] returned Six1-Eya2 inh 10, D2 agonist -6.7, TRPML1 inh -6, PINK1 expr mod 2.8%, D2 PAM -10 and TRPML1 agonist 0.4.
For CC(C)c1c(C(=O)N/N=C/c2ccoc2)nnn1-c1nonc1N the results were Six1-Eya2 inh 14, D2 agonist 7.6, TRPML1 inh -1, PINK1 expr mod 1.4%, D2 PAM -1 and TRPML1 agonist 1.2.
COCCN1C(=O)C(=O)/C(=C(/O)c2ccc(S(=O)(=O)N3CCOCC3)cc2)C1c1cccc(O)c1 (configuration not stated) was read as Six1-Eya2 inh 4, D2 agonist 0.2, TRPML1 inh 23, PINK1 expr mod 2.5%, D2 PAM -1 and TRPML1 agonist 0.0.
Screening CC(=O)N1CCOc2cc(S(=O)(=O)NCc3ccccc3Cl)c(Cl)cc21 returned TRPML1 inh -21, PINK1 expr mod 0.5% and TRPML1 agonist 4.0.
`COc1ccc(NC(=O)NNC(=O)C(C)Oc2ccc(C(C)C)cc2)c(OC)c1` (configuration not stated) gave Six1-Eya2 inh 9, D2 agonist 2.2, TRPML1 inh 3, PINK1 expr mod -0.1%, D2 PAM -1 and TRPML1 agonist 0.1.
N#CC1=C(N)Oc2c(ccc3cccnc23)C1c1ccccc1 (configuration not stated) was read as Six1-Eya2 inh 7, D2 agonist -4.3, TRPML1 inh 33, PINK1 expr mod 7.8%, D2 PAM -2 and TRPML1 agonist 2.2.
Screening CCN(C(=O)COC(=O)c1ccc2[nH]c(C)c(C)c2c1)c1c(N)n(Cc2ccccc2)c(=O)[nH]c1=O returned Six1-Eya2 inh -9, D2 agonist -3.8, TRPML1 inh -6, PINK1 expr mod 1.7%, D2 PAM -8 and TRPML1 agonist 0.1.
For CN(Cc1ccc(F)cc1)C(=O)c1cccc(S(=O)(=O)N2CCN(c3ccc(F)cc3)CC2)c1 the results were Six1-Eya2 inh -10, D2 agonist -1.8, TRPML1 inh 6, PINK1 expr mod 3.0%, D2 PAM -1 and TRPML1 agonist 0.8.
For O=C(COC(=O)CNC(=O)c1ccccc1)NCCc1ccccc1 the results were Six1-Eya2 inh 8, D2 agonist -1.8, TRPML1 inh 27, PINK1 expr mod 1.0%, D2 PAM 0 and TRPML1 agonist -0.4.
Screening NC(Cc1ccccc1)c1csc(NC(=O)Nc2ccccc2Oc2ccccc2)n1 (configuration not stated) returned Six1-Eya2 inh -9, D2 agonist 4.8, TRPML1 inh -18, PINK1 expr mod -1.3%, D2 PAM 12 and TRPML1 agonist 0.6.
`COc1ccc(CN=C2NC(=O)CC(C(=O)Nc3ccc([N+](=O)[O-])cc3C)S2)cc1` (configuration not stated) gave Six1-Eya2 inh 4, D2 agonist 1.3, TRPML1 inh 26, PINK1 expr mod 6.6%, D2 PAM 0 and TRPML1 agonist -0.6.
O=C(NNS(=O)(=O)c1ccc(F)cc1)C1CC(c2cccnc2)=NO1 (configuration not stated) was read as Six1-Eya2 inh -4, D2 agonist 0.9, TRPML1 inh 24, PINK1 expr mod -0.8%, D2 PAM -1 and TRPML1 agonist 0.0.
Screening O=C(CCCNS(=O)(=O)c1cccc2nsnc12)NCCc1ccccc1 returned Six1-Eya2 inh 0, D2 agonist -4.6, TRPML1 inh -6, PINK1 expr mod 0.5%, D2 PAM -10 and TRPML1 agonist -0.5.
For Cc1cc(C(=O)OCC(=O)NCc2ccco2)c(C)n1-c1ccccc1 the results were Six1-Eya2 inh -14, D2 agonist -4.8, TRPML1 inh 5, PINK1 expr mod 6.4%, D2 PAM 0 and TRPML1 agonist -0.7.
`COCc1cccc(-c2csc(C(C)(O)c3cccc(OC)c3)n2)c1` (configuration not stated) gave Six1-Eya2 inh 0, D2 agonist 3.7, PINK1 expr mod 1.4%, D2 PAM -2 and TRPML1 agonist -0.5.
For O=C(Nc1ccccc1C(=O)N/N=C/c1ccco1)c1ccccc1 the results were Six1-Eya2 inh 0, D2 agonist -4.7, TRPML1 inh -2, PINK1 expr mod -1.7%, D2 PAM -10 and TRPML1 agonist 0.1.
COc1ccc(C2CC(c3cccc(Cl)c3)=NN2c2ccc(S(N)(=O)=O)cc2)cc1 (configuration not stated) was read as Six1-Eya2 inh 39, D2 agonist -1.9, TRPML1 inh -8, PINK1 expr mod -1.2%, D2 PAM -3 and TRPML1 agonist -0.9.
